Screens deposited in PubChem by National Center for Advancing Translational Sciences (NCATS).
TRPML1 inh: human mucolipin-1 channel inhibition | 390,000 tested, 0.02% active | Q9GZU1 | AID 624415 | activity change, negative = inhibition, % (concentration not given with the values) | TRPML1-inducible cells, Ca2+ dye fluorescence, FDSS; hits give low values; inhibition of EC80 agonist-evoked calcium signal; in the data active means activity change below about -50%; inconclusive means about -30% to -50%; inactive means above about -30%;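 note: stimulus is agonist 54-4 at its EC80 concentration; % is set by controls: 0 for no effect and ±100 for the full control effect; compound concentration not given in the record; the text of the record puts the active cut at -80%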
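Calcium fluorescence in TRPML1-DL cells induced overnight with Tet: a 110 s read after compound pin addition, then a 110 s antagonist read after challenge with 54-4 at 4 uM final (EC80).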
gsp ag: agonists of gsp mutant (McCune-Albright syndrome). Potency, µM (doses to about 76.9 µM), without a hit: at the top dose activation (cAMP increase), usual class: activators. gsp mutant cells, cAMP HTRF, 30 min; control for the full effect not named in the record. 340,000 tested, 0.13% active; active = well fitted activation curve with a large enough effect; inconclusive = small, poorly fitted or top-dose-only effect, or another doubt; inactive = no such curve, though single readings can be large or run the other way; cell line not stated here;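 note: phosphodiesterase inhibitor Ro 20-1724 added with compounds to block cAMP breakdown; potency is the fitted concentration of half-maximal effect; nearly all actives have a fitted effect of over 60% in size; about a fifth of the inactives were tested at one dose only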
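Cells stably selected in G418 were plated at 2000/well, grown 16-24 hr, then given compounds in DMSO with the PDE inhibitor […] (300 uM solution added) for 30 min at 37C; cAMP was read by HTRF.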
gsp antagonist: gsp mutant antagonism; Potency, µM (titrated, usually from 76.9 µM), without a hit: at the top dose activity change, negative = inhibition, actives largely listed as inhibitors; AID 624288; 340,000 tested, 0.4% active; gsp-mutant cells, cAMP HTRF, 30 min; control for the full effect not named in the record; active = falling curve of any shape with a large fitted effect; inconclusive = falling curve, mostly with a smaller effect; inactive = flat or rising curve; cell line not stated here;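 note: intracellular cAMP measured with PDE inhibitor Ro 20-1724 present during compound exposure; potency is the fitted concentration of half-maximal effect; % is set by controls: 0 for no effect and ±100 for the full control effect; nearly all actives have a fitted effect of over 65% in size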
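Cells in G418 medium, seeded 16-24 h, 37C; buffer exchange to DPBS + 1 mM CaCl2, 0.5 mM MgCl2, 0.05% BSA; cpds in DMSO + […] (300 uM stock), 30 min 37C; HTRF cAMP detection.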
Menin-MLL FL inh: menin-MLL binding inhibition, fluorescein peptide. Fluorescence polarization, fluorescein-MLL peptide displacement from menin. FP activity change, % at 61.4 µM. 290,000 tested, under 10 active. AID 1766; inconclusive = falling polarisation curve, or a change in total fluorescence; inactive = total fluorescence flat and polarisation flat or rising; no compound was filed as active; the % refers to the polarisation; negative = inhibition;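 note: % of control where 0% means no effect; inhibitors lower the polarisation; unlabelled MLL peptide was the positive control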
ClpP mod: qHTS Assay for Activators of ClpP | ATP-dependent Clp protease proteolytic subunit (Bacillus subtilis (strain 168)), P80244 | purified B. subtilis ClpP, FRET peptide cleavage, 20 min | Potency, µM (series often up to 57.5 µM), inactives show at the highest dose activity change, negative = active | 340,000 tested, 1.9% active | AID 651965, 2013; active = well fitted falling curve with a large enough effect; inconclusive = small, poorly fitted or top-dose-only effect; inactive = no such curve, though single readings can be large or run the other way; note: potency is the fitted concentration of half-maximal effect; the source files actives as falling curves though it sought activators and does not explain the sign; nearly all actives have a fitted effect of over 65% in size; many hits overshoot -100%
Target sequence (P80244 whole entry, looked up): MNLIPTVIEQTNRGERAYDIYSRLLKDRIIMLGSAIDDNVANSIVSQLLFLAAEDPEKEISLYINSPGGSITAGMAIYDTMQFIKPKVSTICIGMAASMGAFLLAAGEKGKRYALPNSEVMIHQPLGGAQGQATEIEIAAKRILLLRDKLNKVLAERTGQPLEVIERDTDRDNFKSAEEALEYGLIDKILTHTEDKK
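FRET quenching reversal measured ClpP activation: 10 microg/mL B. subtilis ClpP at pH 8 with the FRET-FV decapeptide, read at 430 nm after 320 nm excitation. The 20-min minus 0-min signal was scaled between DMSO/no-enzyme wells and ADEP (5.8 microM final).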
Sfp PPTase inh: Sfp phosphopantetheinyl transferase inhibition; Potency, µM, without a hit: max response, negative = inhibition, most hits filed as inhibitors; Biochemical Sfp PPTase activity, qHTS; Q9F4F7; 310,000 tested, 3.5% active; active = well fitted inhibition curve with a large enough effect; inconclusive = small, poorly fitted or top-dose-only effect, or another doubt; inactive = no such curve, though single readings can be large or run the other way;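 note: the enzyme is Sfp with the accession as filed and its product quenches rhodamine fluorescence; potency is the fitted concentration of half-maximal effect; 0% = enzyme reaction without inhibitor and -100% = no enzyme wells; top concentration of the series not given in the record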
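Reaction rates are the 30-min fluorescence difference (ex 525, em 598 nm) in wells containing 15 nM Sfp, 5 uM rhodamine-CoA and 12.5 uM BHQ-2-YbbR at pH 7.6 with 10 mM MgCl2.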
TRPV1 PAM: enhances activation of the human vanilloid receptor TRPV1; Q8NER1; TRPV1-expressing cells, Fluo-8 calcium influx, capsaicin EC20 potentiation; host cell line not named in the record; control for the full effect not named in the record; potentiation, % at 8.33 µM; 320,000 tested, 0.02% active; AID 540277; active means potentiation above 80%; inconclusive means 30% to 80%; inactive means below 30%; note: 0% is about no effect
Target sequence (Q8NER1 whole entry, looked up): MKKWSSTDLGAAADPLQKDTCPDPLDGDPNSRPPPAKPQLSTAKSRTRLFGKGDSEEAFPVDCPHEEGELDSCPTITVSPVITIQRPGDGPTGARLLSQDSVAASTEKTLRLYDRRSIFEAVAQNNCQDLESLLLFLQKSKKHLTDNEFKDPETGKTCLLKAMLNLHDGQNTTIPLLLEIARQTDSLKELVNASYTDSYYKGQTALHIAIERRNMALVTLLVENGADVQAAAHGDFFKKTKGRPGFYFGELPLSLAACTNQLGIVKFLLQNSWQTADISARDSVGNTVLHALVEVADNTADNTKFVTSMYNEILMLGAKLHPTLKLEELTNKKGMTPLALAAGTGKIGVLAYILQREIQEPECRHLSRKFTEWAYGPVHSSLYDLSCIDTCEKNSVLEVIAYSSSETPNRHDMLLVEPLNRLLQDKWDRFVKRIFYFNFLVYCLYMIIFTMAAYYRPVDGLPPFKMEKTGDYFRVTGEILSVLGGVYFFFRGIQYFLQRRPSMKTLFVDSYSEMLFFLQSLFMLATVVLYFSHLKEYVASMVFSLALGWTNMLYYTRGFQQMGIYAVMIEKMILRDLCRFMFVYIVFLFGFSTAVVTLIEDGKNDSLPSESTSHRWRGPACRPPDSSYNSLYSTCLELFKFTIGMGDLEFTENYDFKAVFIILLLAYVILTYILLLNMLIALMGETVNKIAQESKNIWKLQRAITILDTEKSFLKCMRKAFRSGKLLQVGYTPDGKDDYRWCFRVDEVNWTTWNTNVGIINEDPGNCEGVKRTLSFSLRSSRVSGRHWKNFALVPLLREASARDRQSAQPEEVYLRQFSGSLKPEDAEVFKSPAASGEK
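Fluo-8 calcium influx in TRPV1-expressing cells, kinetic read (ex 480/em 520 nm). Compound added and read 3 min for agonist activity, followed by capsaicin at EC20 final and 2 min further read for enhancement.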
Active calls of the source: *; ? = inconclusive; . = not tested or not shown; [ ] = another dose, or the depositor's remark.

structure,TRPML1 inh,gsp ag,gsp antagonist,Menin-MLL FL inh,ClpP mod,Sfp PPTase inh,TRPV1 PAM
O=C(CN1C(=O)NC2(CCCCCCC2)C1=O)NCc1ccc(Cl)cc1,26,?,5%,.,-1.7%,.,.
CCC(C)N(CCNC(=O)CC1Oc2ccc(C)cc2NC1=O)C1CCCCC1 (configuration not stated),10,-30%[inhibitor],4%,-0.7,1.4%,-2%,-1
O=C(NCCCn1ccnc1)c1cc(-c2ccccc2)on1,-17,-2%,-9%,2.7,-0.2%,29%,4
CC(C)c1ccc(NC(=O)COC(=O)Cn2cnc3c2c(=O)n(C)c(=O)n3C)cc1,8,-61%[inhibitor],.,.,-1.4%,.,.
CCc1ccc(NC(=O)c2cc(-c3ccc(F)cc3)on2)cc1,8,-11%,7%,1.4,0.5%,8%,-13
COC(=O)c1ccc(NS(=O)(=O)c2ccccc2)o1,-2,14%[15.4 µM],-2%,6.1,.,14%,2
C/C(=N\NC(=O)CNC(=O)c1ccc2c(c1)OCO2)c1ccco1,19,-10%,-21%,5.5,-0.4%,-9%,4
COc1ccccc1-n1c(O)c(C=NCc2ccccn2)c2ccccc2c1=O,4,-15%,2%,5.2,-4.7%,-11%,?
CC(=O)Nc1ccc(S(=O)(=O)NCC2CCC(C(=O)N3CCCCC3)CC2)cc1 (configuration not stated),1,-9%,7%,0.1,-0.5%,2%,9
CN(C(=O)CCN1CCCO1)C1CCCN(Cc2ccccc2F)C1 (configuration not stated),-3,?,12%,-0.2,1.6%,14%,20
COc1ccc(NC(=O)C(=O)NCC(c2ccco2)N2CCc3ccccc3C2)cc1OC (configuration not stated),20,-3%,-4%,.,0.6%,.,4
CCCc1cc(=O)[nH]c(SCC(=O)Nc2ccc3c(c2)CCC3)n1,22,-9%,-10%,-5.9,1.1%,0%,25
Cc1cc2ncc(-c3cccs3)nc2cc1C,-7,10%,9%,7.5,4.7%,6%,-20
CSCCn1c(C(C)(C)C)cc(C(=O)O)c1C,35,18%[15.4 µM],-15%,0.8,0.8%,17%,2
CCOC(=O)c1cnc2c(c(C)nn2CC)c1NC1CC1,24,17%[15.4 µM],2%,-2.2,1.4%,-1%,-1
CCCn1cc(CN2CCN(Cc3ccc(C)o3)C(CCO)C2)c(C)n1 (configuration not stated),27,-6%[15.4 µM],9%,-0.2,.,-1%,-3
Cn1c2ccccc2c2nnc(SCCN3CCOCC3)nc21,.,?,5%,5.3,0.2%,-13%,9
COc1ccc(C(=O)NCCc2nnc3ccc(SCC(=O)Nc4ccccc4F)nn23)cc1,15,?,0%,.,-11%,8%,-3
Cc1ccc(Nc2nnc(C(C)(C)C)c(=O)n2N)cc1,-15,4%,-2%,2.2,0.6%,11%,-11
O=C(O)CCCN1C(=O)c2ccc(Oc3cccc([N+](=O)[O-])c3)cc2C1=O,20,4%,-17%,-1.8,.,10%,19
O=C(CN1C(=O)c2ccccc2S1(=O)=O)Nc1ncc(Cl)cc1Cl,1,21%,-5%,.,-4.3%,.,.
CCC(C)[C@H](NC(=O)[C@@H]1CSC2c3ccccc3C(=O)N21)C(=O)NCc1ccncc1 (some centres not stated),-10,3%,-6%,.,-0.4%,13%,-14
CNc1nc(SCc2ccc(C)cc2)nc2c1CCCC2,10,-36%[inhibitor],-21%,1.6,-8.3%,-3%,-10
O=S(=O)(O)C(c1ccccc1)C1(O)CCCCC1 (configuration not stated),-27,-6%,4%,.,.,.,.
COC(=O)c1ccc(Oc2nc(C)cc(Oc3ccccc3)n2)cc1,-2,-25%,1%,-0.3,-0.6%,3%,22
CCOC(=O)c1cnc2c(C(=O)OC)cccc2c1NCCN1CCOCC1,-6,-23%,-6%,4.0,-4.8%,24%,28
CCOC(=O)/C(=C\c1ccc(C)cc1)NC(=O)c1ccccc1,-1,13%,-1%,-4.8,.,23%,-3
CCn1c(=S)[nH]c2cc(S(=O)(=O)N3CCCCC3)ccc21,-6,0%,-3%,1.5,-1.5%,-18%,-3
CN(CC1CCCO1)S(=O)(=O)c1ccc(C(=O)Nc2ccc3c(c2)OCO3)cc1 (configuration not stated),4,-10%,-2%,-1.1,.,6%,-41
O=C(CCc1nc2ccccc2c(=O)[nH]1)Nc1ccc(N2CCCCC2)cc1,17,-2%[15.4 µM],7%,6.1,-0.8%,-6%,9
COc1ccc(C2C(C#N)=C(N)N(c3cccnc3)C3=C2C(=O)CCC3)cc1Cn1cc([N+](=O)[O-])cn1 (configuration not stated),-2,-31%[inhibitor],-8%,?,-1.7%,-5%,20
COc1ccc(/C=C/c2noc(-c3ccccc3O)n2)cc1,-10,?,1%,-1.6,-1.4%,3%,24
COc1cc(C(=O)NC(=S)N(CCC#N)Cc2cccnc2)cc(OC)c1OC,-1,-27%,?,.,1.1%,.,.
COc1cccc(CNC(=O)C2CCN(S(=O)(=O)c3ccc4c(c3)OCCO4)CC2)c1,-2,-13%,2%,.,0.7%,4%,0
COc1cccc(NC(=S)NC2CC(C)(C)NC(C)(C)C2)c1,35,-14%,14%,5.2,-3.3%,25%,-4
O=C(CN(Cc1ccco1)Cc1ccco1)Nc1cc(S(=O)(=O)N2CCCCC2)ccc1Cl,37,2%,?,.,0.8%,.,14
Cc1ccc(-c2nnc(-n3nnc4ccccc43)c3ccccc23)cc1,13,-30%,4%,-0.8,-1.5%,-3%,-1
COC(=O)c1cc(NC(=O)c2c(Cl)cnn2C)cc(C(=O)OC)c1,-2,-32%,5%,0.7,-2.5%,11%,4
O=C(c1ccc(CNc2c(N3CCOCC3)c(=O)c2=O)cc1)N1CC=C(c2ccccc2)CC1,-7,-29%,-30%,-0.2,-1.9%,-14%,-9
Clc1ccc(CSc2cnnc3ccccc23)cc1Cl,26,23%,-3%,.,.,.,.
COc1ccc(C(=O)CSc2nnc(-c3ccco3)n2C)cc1,16,0%,-2%,-1.8,1.2%,-8%,-14
CCCc1cc2c(OC(=O)CC)c(-c3ccc(C(=O)OCC)o3)c(=O)oc2cc1OC,18,-6%[15.4 µM],?,3.9,.,-14%,5
Cc1ccc(-c2nn(-c3ccccc3)cc2C(=O)NC2CCC(O)CC2)cc1 (configuration not stated),-3,-19%,-15%,.,-2.1%,.,-8
N#CC12CCCCC1CC1CCCCC1(C#N)N2N (configuration not stated),24,-6%[15.4 µM],4%,0.4,-6.5%,79µM*,-16
CCN1CCN(Cc2cccc(Oc3ccc(Cl)cc3)c2)CC1,9,-2%,7%,-6.5,-0.2%,?,-7
Cc1nccn1CCCNC(=O)c1nc(Cn2cc([N+](=O)[O-])cn2)no1,-14,6%[15.4 µM],11%,0.6,.,6%,-2
O=C1Cc2ccccc2C(=O)N1Cc1cccc(Cl)c1,-5,13%[15.4 µM],11%,-17,0.5%,19%,1
CC(C)Sc1nc2ccc(Br)cc2[nH]1,3,3%,8%,0.3,.,19%,-6
Cc1cc(C)cc(N2C(N)=NC(N)=NC2c2ccccc2F)c1 (configuration not stated),-17,29%,4%,-7.3,0.5%,-1%,-13
Cc1ccc(NC(=O)CCOc2ccccc2)cc1S(=O)(=O)Nc1ccccc1Cl,9,15%[15.4 µM],-22%,-1.5,-0.3%,27%,-4
CCCCOCC(O)CN1CCN(C(C)=O)CC1 (configuration not stated),3,-86%[inhibitor],0%,6.7,-3.7%,?,-2
CC(=O)c1cc2c(cc1F)C(C)(C)CCC2(C)C,-12,-3%[15.4 µM],6%,.,1.1%,.,.
COC(=O)CSc1nc(N)nc(C)c1Cl,34,?,9%,8.0,.,5%,5
COc1ccc(CCN(C)CCCN2CC(c3ccccc3)CC2=O)cc1OC (configuration not stated),-16,28%,8%,-3.5,0.6%,-19%,22
COc1cccc(C(C)NC(=S)NCc2ccc(F)cc2)c1 (configuration not stated),10,2%,-3%,0.6,-21%,7%,-16
Cn1c(=O)[nH]c(=O)c2c1nc(SCCO)n2Cc1ccccc1Cl,23,7%[15.4 µM],-4%,-2.0,0.8%,-16%,5
O=C(O)C(c1ccccc1)N1C(=O)c2cccc3cccc(c23)C1=O (configuration not stated),.,-14%,-2%,-2.1,-22%,4%,-5
O=C1CN(C(=O)COC(=O)CCNS(=O)(=O)c2ccc(Cl)cc2)c2ccccc2N1,5,5%[15.4 µM],-6%,1.8,.,15%,0
COc1cccc(/C=C2\SC(=O)NC2=O)c1OCc1ccc(C(=O)O)cc1,-6,1%[15.4 µM],7%,3.2,.,11%,-9
CCN1C(=O)c2cccc3c(S(=O)(=O)NC(Cc4c[nH]c5ccccc45)C(=O)O)ccc1c23 (configuration not stated),1,?,7%,6.5,3.1%,9%,-30

The list continues.
structure,TRPML1 inh,gsp ag,gsp antagonist,Menin-MLL FL inh,ClpP mod,Sfp PPTase inh,TRPV1 PAM
CCN(C(=O)c1cc2cc3ccc(C)cc3nc2o1)c1ccc(OC)cc1,3,-23%,5%,-1.2,-4.4%,-5%,-18
O=C(CCc1nnc(CCCc2ccccc2)o1)NCC(F)(F)F,7,-100%[inhibitor],9%,1.7,0.0%,13%,?
O=C(CSCc1ccc(F)cc1)Nc1ccc(F)cc1,-1,-10%,5%,4.0,0.7%,4%,-6
COc1ccccc1S(=O)(=O)N(C)C[C@@H]1OCc2cn(nn2)CCCC(=O)N([C@H](C)CO)C[C@H]1C,-6,11%,.,.,-1.6%,.,.
COc1ccc(-c2cc(C(=O)Nc3nc4ccccc4s3)c3ccccc3n2)cc1OC,37,?,-16%,8.1,-19%,7%,12
CCN(CC)CCCNc1cc(C)c(C#N)c2nc3ccccc3n12,6,-56%[inhibitor],.,.,3.7%,.,.
Cc1ccccc1CN1C[C@@H]2C[C@@H](c3ccc4nsnc4c3)N3CCC[C@@]23C1=O,56,?,-2%,1.8,-0.1%,7%,3
